# Source: PubChem BioAssay (ICCB-Longwood Screening Facility, Harvard Medical School)
# HCMV NEC inh: inhibitors of HCMV UL50-UL53 interaction, biochemical, HTRF; HCMV UL50-UL53 nuclear egress complex (human cytomegalovirus); normalized percent inhibition; inhibition, % (concentration not given with the values); hit rate 0.15% among 190,000; AID 1918969, 2023;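 active = both replicates at 50% or more, plus weaker picks with an unusually low signal ratio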;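 note: stock transfer was 100 nL into about 20 µL; 0% = negative control wells and 100% = wells with untagged competitor protein; inactives centre near -12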
# GIV Gai3 FP: inhibitors of GIV peptide binding to Galpha-i3, primary screen, biochemical, fluorescence polarization, FITC-GIV GBA peptide, rat Galphai3 | 90 min; hits give low values; scaled: aluminum fluoride 0%, vehicle 100% | percent of control (FP), % (no concentration beside the values) | hit rate 0.42% among 210,000 | AID 1224905, 2016;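 active = replicate mean at 85% of control or lower, very high polarization wells dropped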;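 note: wells of about 15 µL received 100 nL stock; the first replicate is given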
# Target sequence (P08753 whole entry, looked up): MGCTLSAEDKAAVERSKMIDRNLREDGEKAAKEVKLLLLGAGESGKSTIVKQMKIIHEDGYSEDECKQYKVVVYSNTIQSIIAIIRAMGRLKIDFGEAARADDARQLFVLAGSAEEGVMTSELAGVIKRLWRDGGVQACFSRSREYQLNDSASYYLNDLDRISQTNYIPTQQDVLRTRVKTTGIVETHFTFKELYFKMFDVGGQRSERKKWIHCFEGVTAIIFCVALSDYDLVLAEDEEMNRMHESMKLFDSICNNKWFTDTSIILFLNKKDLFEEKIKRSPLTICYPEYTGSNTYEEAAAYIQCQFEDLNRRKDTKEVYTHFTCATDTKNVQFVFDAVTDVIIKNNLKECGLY
# Sa growth 42C: S. aureus growth inhibition at 42 and 30 °C, primary screen, LtaS inhibitor project, RN4220, two temperatures; relative growth, % (test concentration not listed); hit rate 0.53% among 170,000; OD600, 20 h, 42 °C; hits give low values; AID 720641, 2013;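 active = growth at 42 °C up to 50% and 20 or more points under that at 30 °C, or under 10% at both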;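 note: 300 nL library stock went into each well; scaled to the means of positive and negative controls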
# Sa growth 42C second temp: recorded beside Sa growth 42C, whose call it bears; relative growth, %; measured here: growth at 30 °C;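 optical density after 20 h as mean of two plates; 100% = untreated growth and lower means inhibition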
# Numbers without * were called inactive; . = no result given; & = joins results of further samples.
SMILES,HCMV NEC inh,GIV Gai3 FP,Sa growth 42C,Sa growth 42C second temp
Cc1ccc(C)c(S(=O)(=O)c2n[nH]n3c2nc(=O)c2sccc23)c1,-8,98,76,57
Cc1cc(C(=O)OC(C)C(=O)Nc2cccc(C(F)(F)F)c2)c(C)o1 (stereo not given),-33,.,101,93
CCCC1=NN(C(=O)c2ccc(Br)cc2)C(O)(C(F)(F)F)C1 (stereo not given),-6,105,.,.
Cc1ccc(Cl)cc1N1CCN(CCCNC(=O)CN2C(=O)CSc3ncccc32)CC1,-14,103,97,84
CSc1ccc(-c2nc3ncccn3c2Nc2ccc(C)c(C)c2)cc1,-20,101,116,82
Cc1ccc2ncnc(NC(CO)C(=O)O)c2c1 (stereo not given),-8&4,104&103,96,91
COc1ccc2c(c1)NC(c1ccc(Cl)cc1)=NC(c1cccs1)=N2,-30,99,102,90
Nc1nnc(CCN2C(=O)CSC2=O)s1,5,97,103,76
O=C(Nc1ccc(C(=O)NCCCN2CCCCC2)cc1)C1=CSCCO1,-43,98,98,81
COc1ccc(C(=O)c2oc3ccccc3c2N)cc1,-98,107,108,82
COC(=O)N/N=C/c1cc(C)n(-c2ccccc2)c1C,-32,97,86,76
COc1ccccc1CCn1cc(C#N)c(=O)[nH]c1=O,-8,97,90,85
O=C(Nc1ccccc1C(=O)N1CCOCC1)c1ccccc1,.,107,83,97
CNC(=S)Sc1ccc(F)cc1F,1,107,59,0
COc1cccc(-n2ccnc2SCC(=O)Nc2ccc(Cl)c(Cl)c2)c1,.,95,105,98
COc1cccc(NC(=O)Cn2c(=O)n(-c3ccccc3)c(=O)c3c2c2cc(OC)ccc2n3C)c1,.,109,81,79
COC(=O)c1sccc1NC(=O)Cn1c(=O)nc(-c2ccccc2F)c2cc(Cl)ccc21,-19,105,.,.
CN1c2ccccc2C(=O)/C(=N\Nc2ccccc2Cl)S1(=O)=O,-35,109,92,88
CC(=O)Nc1ccc(NC(=O)[C@@H]2CCCC[C@@H]2C(=O)O)cc1,.,104,104,95
Cc1ccccc1NS(=O)(=O)c1ccc(-n2cnnn2)cc1,-8,103,101,97
CCc1ccc2oc(C(=O)Nc3ccccc3C(=O)OC)cc(=O)c2c1,-12,103,108,88
Cc1ccccc1OCCSc1nnc(-c2cccs2)o1,16,99,110,80
Cc1cc(C)cc(OCC(=O)NCC(c2ccc(Cl)cc2)N2CCCCC2)c1 (stereo not given),-14,104,103,66
O=C(NCC1CCCO1)c1csc2c1CCCC2 (stereo not given),.,100,112,88
COc1ccc(COC(=O)C2=C(C)NC3=C(C(=O)CCC3)C2c2coc3ccccc3c2=O)cc1 (stereo not given),-21,100,.,.
Cc1nc(-c2cc(S(=O)(=O)N3CCC4(CC3)OCCO4)c(C)s2)no1,-21,105,.,.
CNc1ccc(OC(F)F)cc1C(=O)c1ccccc1,-23,98,91,85
CC1CCOC2(CCC(C(C)(C)C)CC2)O1 (stereo not given),3,104,99,101
NC(=S)c1cccs1,-37,.,93,84
CCOc1ccc2c(c1)s/c(=N\C(=S)NC(=O)CN1C(=O)CCC1=O)n2C,-6,103,109,88
Cc1c(Cl)cnc(NC(=O)COC(=O)COc2ccc3c4c(c(=O)oc3c2)CCC4)c1Cl,-8,.,88,93
O=C(CSc1nnc(-c2cccnc2)o1)NCC1CCCO1 (stereo not given),-18,96,.,.
Cc1cccc(C)c1NC(=O)CCS(=O)(=O)c1ccc2c(c1)NC(=O)CS2,4,130,.,.
COc1cc(=O)n(-c2ccc(F)cc2)nc1C(=O)NC(c1ccccc1)c1ccccc1,-29,107,.,.
CCC(C)NC(=O)c1ccc(Cn2c(=O)c3cc(OC)c(OC)cc3n(CC(=O)NCCC(C)C)c2=O)cc1 (stereo not given),-33,103,.,.
CCSc1nn(CC(=O)Nc2ccc(C)cc2C)c(N)c1S(=O)(=O)c1ccc(OC)cc1,-8,102,.,.
CC(C)CCNC(=O)CCCN1C(=O)c2ccccc2Sc2ncccc21,.,106,103,102
CCOc1ccc(CCNS(=O)(=O)c2c(C)nc3scc(C)n3c2=O)cc1OCC,-2,105,113,98
CCOC(=O)CSc1nc2ccccc2c(=O)n1-c1ccc(C(=O)NCCOC)cc1,.,104,120,88
O=C(OCC(=O)N1CCc2ccccc2C1)c1sc2sccc2c1Cl,1,.,101,94
c1csc(-c2csc3nc(CN4CCOCC4)nc(NC4CC4)c23)c1,6,.,121,89
O=C(COc1ccc2c(c1)OCO2)NC12CC3CC(CC(C3)C1)C2,-8,.,116,93
COc1ccc(-n2c(-c3cccc(OC)c3)csc2=NCc2cccnc2)cc1,-18,98,106,85
CC(=O)OC12CC3CC(C1)CC(C(=O)O)(C3)C2,-13,.,105,85
CCc1cc(=O)oc2c(C)c3occ(C)c3cc12,-16,104,91,83
Nc1c2c(nc3ccccc13)N(Cc1ccccc1)CC2,.,108,102,65
CCOC(=O)Cc1c(C)nc2c(-c3ccc(OC)c(OC)c3)c(C)nn2c1C,-13,106,93,89
O=C(Nc1c(C(=O)N2CCOCC2)cnn1-c1ccccc1)c1ccco1,-7,102,103,98
O=C1NC(=O)NC(=C/C=C/c2ccc(-c3ccc(Cl)cc3Cl)o2)N1,4,105,96,90
Cc1onc(-c2c(Cl)cccc2Cl)c1C(=O)Oc1noc2ccccc12,2,104,105,98

# (next part)
SMILES,HCMV NEC inh,GIV Gai3 FP,Sa growth 42C,Sa growth 42C second temp
Cc1c(Nc2cc(N3CCCCCC3)c3nonc3c2[N+](=O)[O-])c(=O)n(-c2ccccc2)n1C,-34,103,.,.
CN1C(=O)C2(c3ccccc31)N(c1ccc(F)c(Cl)c1)C(=O)CS2(=O)=O (stereo not given),.,109,91,83
Cc1cccc(Cn2c(=O)[nH]c3ccccc32)c1,-17,105,96,88
O=C(NCc1cccs1)c1cccnc1C(=O)O,7,102,96,96
CC(C)c1ccc(S(=O)(=O)Nc2cc(C(=O)O)ccc2N(C)C)cc1,11,103,.,.
CCN1CCN(CCCNC(=O)C2=C(C)C(=O)OC23CCN(C(C)=O)CC3)CC1,-18,102,.,.
CSc1nc(N)nc(N(C)C)n1,-4,107,118,97
CSC(=NCc1cccs1)NC#N,-4,105,120,82
Cc1ccc(-c2onc(C)c2C)cc1S(=O)(=O)CCC(=O)N1CCN(C)CC1,-14,107,.,.
Cc1ccc(S(=O)(=O)C(CNC(=O)c2c(F)cccc2F)c2ccco2)cc1 (stereo not given),-45,102&100,100&81,93&84
Cn1cc(/C(N)=N/O)c(=O)n(Cc2ccccc2)c1=O,-41,108,73,86
COc1ccc(Oc2c(C(F)(F)F)oc3cc(OC(=O)c4cncc(Br)c4)ccc3c2=O)cc1,-18,104,.,.
Cc1ccc(-c2nn(-c3cc(N4CCN(CCO)CC4)ccc3[N+](=O)[O-])c(=O)c3ccccc23)cc1C,-49,102,.,.
O=C(CCSc1nc(-c2ccco2)cc(C(F)(F)F)n1)NCc1ccco1,-42,107,93,76
CCOc1cccc2cc(C(N)=O)c(=NCc3ccccc3)oc12,.,114,107,83
O=C(/C=C/c1ccc(Cl)cc1)Nc1nccs1,.,105,88,89
CC(=O)N1CC=C2C(C#N)=C(N)C(C#N)(C#N)[C@H](c3ccc(F)cc3F)[C@H]2C1,-36,.,103,101
Cc1ccc(-n2c(C)nc3cc(C(=O)O)ccc32)c(C)c1,-18,99,105,92
Oc1ccccc1C1CCCCC1c1ccccc1 (stereo not given),.,100,69,56
CC(=O)Nc1ccc(S(=O)(=O)N2CCCC2c2ccc3c(c2)OCCCO3)cc1 (stereo not given),5,.,117,102
C=CCn1c(/N=C/c2ccc(OC)cc2)nc2ccccc21,-16,102,88,81
COc1ccccc1N1CCN(C(=O)CSc2nc(C)cc(=O)[nH]2)CC1,-13,104,105,92
Cc1noc(C)c1S(=O)(=O)N(C)C1CCCCC1,6,105,108,92
CCn1nc(C)c2[nH]c(=S)n(CC3CCCO3)c(=O)c21 (stereo not given),3,107,.,.
O=C(NC1CC1)c1cccc(Nc2ccnc(-c3cccc(F)c3)n2)c1,6,108,.,.
Cc1cc(C)c(C(=O)O)[nH]1,-16,103,98,85
O=C(CSc1ccc(Br)cc1)N1CCCCC1,-15,.,87,90
Cc1cc(OCc2nc(C)c(C(=O)NC3CCCCC3)s2)ccc1Cl,-16,103,.,.
Cn1c(=O)c(-c2noc(CCC(=O)Nc3ccc(F)cc3F)n2)nn(-c2ccc(F)cc2)c1=O,-66,110,.,.
O=C(CCSCc1ccccc1F)N1CCN(c2ccc(F)cc2)CC1,.,100,105,85
COc1ccc(CCNC2(Cc3ccccc3)CC(C)N(C)CC2C)cc1OC (stereo not given),8,.,106,89
O=C(COc1ccc(Cl)cc1)Nc1ccccc1OCc1cc(=O)n2ccccc2n1,.,102,93,89
CSCc1nnc(NC(=O)c2ccc(S(=O)(=O)N(CC(C)C)CC(C)C)cc2)o1,-43,102,-0.4*,0.2*
Cc1cc(C)cc(NC(=O)C(=O)NCCCN2CCOCC2)c1,-36,108,108,84
Cc1cc(SCC(=O)NCc2ccccc2)nc(=O)[nH]1,.,99,141,90
N#Cc1nc(-c2ccc(Cl)cc2)oc1NC1CC1,-18,.,100,82
CCCC(=O)N(c1ccc2oc(C)c(C(C)=O)c2c1)S(=O)(=O)c1ccc(C)cc1,.,109,108,97
COc1ccc2c(c1)C(=O)C(CC1(O)C(=O)N(C)c3ccccc31)CC2 (stereo not given),-14,.,71,84
O=C(O)CCc1n[nH]c(=O)[nH]c1=O,-35,106,89,89
C1=C(c2ccccn2)Oc2ccccc2O1,-51,.,90,71

# Brought forward from above: two entries; new compounds follow.
SMILES,HCMV NEC inh,GIV Gai3 FP,Sa growth 42C,Sa growth 42C second temp
O=C(O)CCc1n[nH]c(=O)[nH]c1=O,-35,106,89,89
C1=C(c2ccccn2)Oc2ccccc2O1,-51,.,90,71
Cc1cc(F)ccc1NC(=O)C1CCN(S(=O)(=O)c2ccc3c(c2)CCCC(=O)N3)CC1,.,105,100,83
CN(C)CCc1c[nH]c2ccc(Cn3cncn3)cc12,-38&1&-32,.,92&92,88&91
CCCn1c(C)ccc(-c2noc(CCCC(=O)NCc3cccnc3)n2)c1=O,-9,108,.,.
C1CCC(NC2=NCCCS2)CC1,-34,.,104,90
OC(CN1CCOCC1)(c1ccccc1)c1ccccc1,5,106,.,.
CNC(=O)c1ccccc1Sc1ccccc1C(=O)NC,-12,103,95,93
Cc1ccc(C)c(N2CCN(CCCNC(=O)c3ccc4nc(C(C)C)oc4c3)CC2)c1,.,105,79,86
O=C(CCN1CCN(c2ccccc2)CC1)c1ccc2ccccc2c1,-26,.,47,54
COc1ccc(C)cc1S(=O)(=O)NC(C)C(=O)NCc1ccco1 (stereo not given),-3,98,93,99
CCc1ccc(NC(=O)Cn2c(=O)n(Cc3ccccc3)c(=O)c3oc4ccccc4c32)cc1,.,103,102,84

# Ordered by the number under GIV Gai3 FP (rising): four of the compounds above.
smiles | GIV Gai3 FP | Sa growth 42C second temp
COc1ccc(C)cc1S(=O)(=O)NC(C)C(=O)NCc1ccco1 (stereo not given) | 98 | 99
Cc1cc(F)ccc1NC(=O)C1CCN(S(=O)(=O)c2ccc3c(c2)CCCC(=O)N3)CC1 | 105 | 83
OC(CN1CCOCC1)(c1ccccc1)c1ccccc1 | 106 | .
CCCn1c(C)ccc(-c2noc(CCCC(=O)NCc3cccnc3)n2)c1=O | 108 | .

# 5 entries out of the list, arranged by formula weight, smallest number first.
SMILES,HCMV NEC inh,GIV Gai3 FP,Sa growth 42C,Sa growth 42C second temp
CCOc1ccc2c(c1)s/c(=N\C(=S)NC(=O)CN1C(=O)CCC1=O)n2C,-6,103,109,88
CCOC(=O)CSc1nc2ccccc2c(=O)n1-c1ccc(C(=O)NCCOC)cc1,.,104,120,88
Cc1c(Nc2cc(N3CCCCCC3)c3nonc3c2[N+](=O)[O-])c(=O)n(-c2ccccc2)n1C,-34,103,.,.
COc1ccc(Oc2c(C(F)(F)F)oc3cc(OC(=O)c4cncc(Br)c4)ccc3c2=O)cc1,-18,104,.,.
CCC(C)NC(=O)c1ccc(Cn2c(=O)c3cc(OC)c(OC)cc3n(CC(=O)NCCC(C)C)c2=O)cc1 (stereo not given),-33,103,.,.

# Next part.
SMILES,HCMV NEC inh,GIV Gai3 FP,Sa growth 42C,Sa growth 42C second temp
COc1cc(C2CC(=O)c3c([nH]c(C(=O)OC4CCCC4)c3C)C2)cc(OC)c1OC (stereo not given),-38,108,105,79
Cc1ccccc1CNC(=O)Nc1ccc2c(c1)N(C)C(=O)c1ccccc1S2,10,103,112,103
Cc1nnc2c(N3CCN(c4ccc(F)cc4)CC3)nc3ccc(C(=O)c4ccccc4)cc3n12,.,108,107,95
COc1cc(C#N)ccc1OCC(=O)Nc1ccc(F)cc1,5,106,97,93
CC(=O)N(C)CP(=O)(O)CN1CCCC1=O,4,.,83,93
Cc1[nH]c(C(=O)Nc2ccc(F)cc2)c(C)c1S(=O)(=O)N1CCCC1,-12,112,.,.
COc1ccc(-c2nc(CCNC(=O)c3cccs3)cs2)cc1,.,98,86,98
S=c1[nH]nc(-c2ccc(Br)cc2)o1,1,100,21,21
O=S(=O)(Cn1nc(Br)nc1Br)c1ccc(Cl)cc1,-13,101,.,.
Cc1ccc(C(C)NC(=O)c2cccc(C3CCCN(C(=O)NC(C)C)C3)c2)c(C)c1 (stereo not given),-17,106,.,.
COc1ccc(NC(=O)C2=CSCCO2)cc1OC,-12,110,96,98
O=c1[nH]c(-c2ccc(F)cc2)nc2c1sc(=S)n2-c1ccccc1,0,101,86,48
